Compound activity from PubChem.
TSHR ag: TSH receptor (human) agonism; HEK293-CNG-TSHR cells (CNG channel as cAMP sensor), membrane potential dye, cAMP; Potency, µM (top dose mostly 57.1 µM), for inactives: top-dose activation, usual class: activators; 73,000 tested, 0.48% active; active = well fitted activation curve of enough size with the parental cells flat; inconclusive = any curve in the parental cells; inactive = parental cells flat and receptor cells flat or falling; further: potency means the concentration at half of the fitted maximal effect; % of control where 0% means no effect; weak receptor curves with flat parental cells got no call and are not listed
Target sequence (P16473 whole entry, looked up): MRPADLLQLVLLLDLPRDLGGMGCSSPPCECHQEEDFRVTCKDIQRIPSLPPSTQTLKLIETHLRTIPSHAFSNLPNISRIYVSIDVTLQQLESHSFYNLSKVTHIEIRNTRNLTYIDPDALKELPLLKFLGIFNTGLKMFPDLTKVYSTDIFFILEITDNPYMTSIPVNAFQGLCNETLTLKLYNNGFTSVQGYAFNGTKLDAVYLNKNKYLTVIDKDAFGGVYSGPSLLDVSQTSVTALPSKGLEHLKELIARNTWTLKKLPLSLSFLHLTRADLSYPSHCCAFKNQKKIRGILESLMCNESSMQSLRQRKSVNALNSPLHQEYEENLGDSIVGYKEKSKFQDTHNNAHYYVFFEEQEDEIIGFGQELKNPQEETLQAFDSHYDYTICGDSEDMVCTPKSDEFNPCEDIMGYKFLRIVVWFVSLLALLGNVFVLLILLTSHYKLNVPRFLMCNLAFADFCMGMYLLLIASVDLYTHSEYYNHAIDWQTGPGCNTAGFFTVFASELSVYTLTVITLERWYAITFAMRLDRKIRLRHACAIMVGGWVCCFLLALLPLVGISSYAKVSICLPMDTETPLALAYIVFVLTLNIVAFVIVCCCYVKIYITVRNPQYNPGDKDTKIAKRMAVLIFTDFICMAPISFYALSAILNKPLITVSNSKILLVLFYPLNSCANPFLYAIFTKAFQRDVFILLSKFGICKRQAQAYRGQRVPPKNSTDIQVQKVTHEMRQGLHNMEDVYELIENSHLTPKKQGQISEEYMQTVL
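HEK 293 cells stably expressing TSHR and a modified CNG channel, with CNG-only parental cells as counterscreen, were preloaded 60 min at room temperature with membrane potential dye containing 100 uM RO 20-1724. Compound exposure was 30 min, and depolarization was read as fluorescence at 590 nm.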
Resorufin fluor: resorufin region autofluorescence; Compound fluorescence, resorufin region 547/598 nm, buffer; active compounds read high; max dye-equivalent concentration, M; 59,000 tested, 0.04% active; active = above 10 nM dye equivalent; inconclusive = 1 to 10 nM; inactive = 1 nM or less; a few of its hits are not listed in these tables; further: highest value over a series up to 38 µM
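Dye-equivalent concentration values derive from comparing each well's 547/598 nm fluorescence against resorufin standards included on every plate. Incubation was 15 min at room temperature in 100 mM Tris, pH 8.0.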
A488 autofl: compound autofluorescence in A488 spectral region; 59,000 tested, 0.1% active; compound autofluorescence, A488 spectral region, dye equivalency; active compounds read high; max dye equivalency, M; active = above 10 nM dye equivalent; inconclusive = 1 to 10 nM; inactive = 1 nM or less; about half of its hits are not listed in these tables;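 further: highest value over a series up to 38 µM; compound alone in buffer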
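Read-out: relative fluorescence at 480/540 nm, expressed as Alexa 488 dye-equivalent concentration from a six-point A488 standard included per plate. Conditions: 100 mM Tris, pH 8.0; 15 min incubation, room temperature.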
A647 autofl: compound fluoresces in the A647 spectral region; Compound fluorescence, A647 channel (570/671 nm), Tris buffer; 59,000 tested, under 10 active; max dye-equivalent concentration, M; active means above 1 µM dye equivalent; inconclusive means 0.1 to 1 µM; inactive means 0.1 µM or less;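 further: values scaled relative to a standard on each plate; highest value over a series up to 38 µM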
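Buffer was dispensed, compounds and Alexa 647 standards were pin-transferred, and plates sat 15 min at room temperature. Intensity at 570/671 nm was then converted to dye-equivalent concentration using the plate's A647 standard curve.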
AID923: qHTS Assay for Allosteric/Competitive Inhibitors of Caspase-1: Spectroscopic Profiling in AFC Spectral Region | compound fluorescence, AFC spectral region (405/520 nm); almost no hit is shown here | Potency, µM (doses to about 57.5 µM), inactives show at the top dose fluorescence increase, hits mostly activators | 75,000 tested, 1.1% active | AID 923, 2007; active means well fitted activation curve with a large enough effect; inconclusive means small, poorly fitted or top-dose-only effect;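 further: potency means the concentration at half of the fitted maximal effect; 0% is about no effect; scaled to a free AFC standard on each plate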
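Titrations up to 57 uM read every 20 sec for 3 min (405/520 nm) with 50 nM caspase 1 and 5 uM Ac-WEHD-AFC, pH 7.5 HEPES buffer. Fluorescence-vs-time intercept gave baseline, scaled against on-plate AFC standard.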
Numbers without * were called inactive; i = inactive; ? = inconclusive; . = not tested or not shown; [ ] = another dose, or the depositor's remark.

Results follow in this order: TSHR ag | Resorufin fluor | A488 autofl | A647 autofl | AID923
COc1ccc2oc(C(=O)OCC(=O)c3ccc4c(c3)OCCO4)c(C)c2c1
→ ? | i | i | 8.4e-09 | -0.4%
COc1ccc(Oc2ncc3nc(C)c(=O)n(CCc4ccccc4)c3n2)cc1
→ ? | i | i | 1e-08 | -1.1%
O=C1CC(c2ccccc2)n2nc(N3C(=O)CCC3=O)nc2N1 (configuration not stated)
→ ? | . | . | . | -0.6%
O=C1CCCC/C1=C/Nc1ccc2c(c1)OCO2
→ -7% | i | i | 1e-09 | 1.7%
C/C(Cl)=C\Cn1c(N2CCCCCC2)nc2c1c(=O)n(C)c(=O)n2C
→ -6% | i | i | 3.6e-09 | -1.4%
CCOc1cc(-c2c(C)c(CC)nc(N)c2C#N)ccc1O
→ ? | i | i | 1e-09 | -0.1%
CCCCn1c(SCC(=O)NCCc2ccc(OC)c(OC)c2)nc2c1c(=O)n(C)c(=O)n2C
→ 5% | i | i | 3.8e-08 | 2.4%
CC1(C)CC(=O)C2=C(C1)Nc1[nH]c(=S)[nH]c(=O)c1C2c1ccccc1 (configuration not stated)
→ 1% | . | . | . | -0.4%
CCOC(=O)c1nc(NCc2cccnc2)c2ccccc2n1
→ 7% | i | i | 1e-09 | 1.8%
O=C(CSc1n[nH]c(=O)[nH]c1=O)c1ccccc1
→ 3% | i | i | 6.9e-09 | 1.9%
COc1ccc(C(=O)Nc2ccc(OC)c(OC)c2)cc1
→ -11% | i | i | 6.4e-09 | -1.8%
O=C(NCC12CC3CC(CC(C3)C1)C2)c1nn2c(c1Cl)NC(c1ccco1)CC2C(F)(F)F (configuration not stated)
→ -4% | i | i | 1e-09 | 1.8%
COC(=O)C(NS(=O)(=O)c1ccc(NC(C)=O)cc1)C(C)C (configuration not stated)
→ 3% | i | i | 1e-09 | 4.8%
O=C(NCc1ccc2c(c1)OCO2)C1CC(=O)N(c2ccc(O)cc2)C1 (configuration not stated)
→ -1% | i | i | 1e-09 | 0.4%
CC(=O)Nc1c(C(=O)O)oc2ccccc12
→ 2% | i | i | 9.6e-09 | 0.7%
O=C(CS(=O)CC(=O)Nc1cccc2c1CCCC2)Nc1ccc(F)cc1 (configuration not stated)
→ -2% | i | i | 1e-09 | -0.3%
Cc1ccccc1NC(=O)CN(C)S(=O)(=O)c1cccc2cccnc12
→ ? | . | . | . | -0.9%
CC(C)C(C(=O)NCc1ccco1)N(C(=O)CNS(=O)(=O)c1ccc(Cl)cc1)C1CCCC1 (configuration not stated)
→ 1% | i | i | 5.7e-08 | -0.9%
O=C(NCc1cccnc1)c1cccc(Cl)c1
→ 2%[11.4 µM] | i | i | 1.4e-08 | -0.8%
CC(c1ccccc1)n1cc(C(=O)NCCCn2ccnc2)nn1 (configuration not stated)
→ 7% | i | i | 5e-08 | 1.2%
CC(C(=O)NCCC1=CCCCC1)N1C(=O)c2ccccc2C1=O (configuration not stated)
→ ? | i | i | 3.2e-08 | 0.6%
COc1cccc(CNCc2ccccn2)c1OC
→ 27%[11.4 µM] | . | . | . | 1.6%
Cc1noc(C)c1CSc1nc2cc(S(=O)(=O)N3CCOCC3)ccc2o1
→ 0% | i | i | 1e-09 | 0.8%
CCn1c2c(c3cc(Br)ccc31)CCC/C2=N\O
→ 23% | i | i | 3.8e-08 | -3.1%
CCc1c2c(nc3cccc(C(C)C)c13)-c1cccc(=O)n1C2
→ 19% | . | . | . | 14%
CSc1ncc(Cl)c(C(=O)Nc2nnc(SC)s2)n1
→ -1% | i | i | 9.7e-09 | 0.8%
COc1cc(-c2[o+]c3cc(O)cc(O)c3cc2O)cc(O)c1O
→ 2%[11.4 µM] | i | i | 1e-09 | -1.3%[11.5 µM]
CCC#CCOCC(=S)Nc1ccccc1
→ -2% | . | . | . | 2.7%
COc1ccccc1N1CCN(C(=O)C2CC=CCC2C(=O)O)CC1 (configuration not stated)
→ -6% | i | i | 2.8e-08 | -0.7%
CC(C)C(=O)Nc1cc(=O)[nH]c2ncnn12
→ . | i | i | 5.7e-09 | -1.3%
CCCCc1cc(=O)oc2cc(C)cc(OCc3nn[nH]n3)c12
→ 8% | i | i | 2.7e-08 | -0.3%
COc1cccc(CNn2cnnc2)c1OCc1ccc(F)cc1
→ ? | i | i | 1e-09 | -1.7%
Cc1cnc(CNc2ncnc3ccc(-c4ccoc4)cc23)cn1
→ ? | i | i | 1e-08 | 9.7%
CCCNC(C)(C)COC(=O)c1ccccc1
→ 4%[25.6 µM] | i | i | 1.5e-09 | 1.0%[25.7 µM]
COC(=O)[C@@H]1CC[C@H](C)[C@@H](c2ccc(C)cc2)N1C(=O)c1ccc(/C=N\O[C@@H](C)CN2CCCc3nc(C)c(C)cc32)cc1
→ 3%[11.4 µM] | . | . | . | -1.1%[11.5 µM]
O=C(O)CCCC(=O)Nc1ccc(C(=O)NCc2cccnc2)cc1
→ 0% | i | i | 1.1e-08 | -0.6%
O=C(Nc1ccc(Cl)cc1C(=O)Nc1ccccn1)c1ccco1
→ . | i | i | 3.8e-09 | 2.1%
CCCC(Cl)CCCC(Cl)CCC(Cl)CCC(Cl)CCC(Cl)CCCC(Cl)CCC (configuration not stated)
→ -9% | . | . | . | 2.7%
Cc1ccc(P(=O)(OCCN2CCOCC2)C(C)(C)C)o1 (configuration not stated)
→ -8% | i | i | 2.7e-08 | -0.2%
O=C(CCc1nc(-c2ccccc2F)no1)NCCc1ccccc1Cl
→ 23% | i | i | 3.6e-08 | 0.0%
CCOc1ccc(NC(C)=O)cc1N
→ 6% | . | . | . | -3.7%
O=C(NCc1ccccn1)c1cc2cc(Br)ccc2oc1=O
→ -2% | i | i | 1e-09 | -1.8%
c1csc(CNc2ncncc2-c2ccc3c(c2)OCO3)c1
→ ? | i | i | 4.1e-08 | -1.9%
Cc1c(-c2cccs2)[n+](=O)c2c(n1[O-])CCC2
→ 4% | i | i | 5.6e-09 | 2.4%
CCN(CC)CCCNc1oc(-c2ccc(OC)c(OC)c2)nc1C#N
→ 3% | i | i | 2e-08 | -0.8%
CCCCOC(=O)n1c(SCC(=O)N(CC)CC)nc2ccccc21
→ ? | i | i | 1e-09 | -0.4%
CC1=C(C(=O)Nc2ccccc2)C(c2ccc(C)o2)n2c(s/c(=C\c3ccco3)c2=O)=N1 (configuration not stated)
→ 2%[11.4 µM] | i | i | 1e-09 | 3.1%
CCC(=O)c1ccc(N2CCN(C(=O)COc3ccc(F)cc3)CC2)c(F)c1
→ ? | . | . | . | 0.2%
Fc1cc2nccnc2cc1N1CCSCC1
→ 11% | i | i | 2.4e-08 | 0.9%
CC1(C)CC(=O)c2cn3c(nc2C1)nc1ccccc13
→ 11% | i | i | 1e-09 | 0.8%

The list continues.
Results follow in this order: TSHR ag | Resorufin fluor | A488 autofl | A647 autofl | AID923
O=c1c(O)c(-c2ccc(O)c(O)c2)oc2c(OC[C@H]3O[C@@H](O)[C@@H](O)[C@H](O)[C@@H]3O)c(O)cc(O)c12
→ 10% | i | i | 1.1e-08 | .
O=C(c1ccccc1)N1CCN(CC#Cc2ccccc2)CC1
→ 7% | i | i | 5.5e-08 | 0.5%
CC1(C)Cc2c(sc3c2C(=O)N(c2ccccc2)C2=NCCCN23)CO1
→ . | i | i | 1.3e-08 | .
CNc1nnc(CSc2nc(C)cc(C)n2)s1
→ 15% | i | i | 3.8e-08 | -0.1%
C=CCn1c(SCc2c(F)c(F)c(F)c(F)c2F)nc(O)cc1=O
→ . | i | i | 1.5e-08 | .
CCOC(=O)c1cc(NC(=O)c2ccoc2C)cc(C(=O)OCC)c1
→ . | i | i | 2.7e-08 | -0.9%
Nc1nc(SCC(=O)O)[nH]c(=O)c1N
→ -4%[11.4 µM] | i | i | 3.4e-09 | 10%[11.5 µM]
CC(C)c1ccc2oc(-c3ccc(N)cc3)nc2c1
→ -12%[11.4 µM] | . | . | . | -0.7%
O=C(C1CCN(c2nnc(N3CCCC3=O)s2)CC1)N1CCN(Cc2ccc3c(c2)OCO3)CC1
→ ? | i | i | 1.7e-09 | -1.9%
Cc1cccn2c(=O)c3cc(C(=O)NCCN4CCOCC4)n(Cc4ccccc4)c3nc12
→ 17% | i | i | 2.5e-08 | -0.6%
CCOC(=O)CN1c2ccccc2NC(=O)CC1C (configuration not stated)
→ -4% | . | . | . | 0.4%
Cc1nn2c(C(F)(F)F)cc(-c3ccc(Cl)cc3)nc2c1C(=O)N1CCOCC1
→ 11%[11.4 µM] | . | . | . | 3.8%
CCCN1CCN(CCCNC(=O)C2CCCN(c3nc4ccc(OCC)cc4s3)C2)CC1 (configuration not stated)
→ -1% | i | i | 2.8e-08 | -1.5%
O=C1OCC2=C1C(c1ccc3c(c1)OCO3)Sc1ccccc1N2 (configuration not stated)
→ 0% | i | i | 2e-08 | -0.4%
CCc1nc(C)ccc1OCC(=O)O
→ -2%[11.4 µM] | i | i | 1e-09 | -0.5%
CCOC(=O)CSc1nnc(CNC(=O)c2ccco2)n1C
→ 9% | i | i | 1.7e-08 | 3.2%
CCOC(C)(C)C
→ -7% | . | . | . | -1.5%
O=C1CC(N2CCN(S(=O)(=O)c3cccc(C(F)(F)F)c3)CC2)C(=O)N1Cc1ccccc1 (configuration not stated)
→ -7% | i | i | 6.6e-09 | 1.4%
COc1ccc(C2CC(=O)Nc3ccccc3S2(=O)=O)cc1OC (configuration not stated)
→ -1% | i | i | 3.9e-09 | 0.7%
CCN1CCCC1CNS(=O)(=O)c1ccc(C(=O)Nc2ccccc2)cc1 (configuration not stated)
→ 4% | i | i | 1.9e-09 | 2.0%
CCOCCCn1cnc2c(c1=O)c1nc3ccccc3nc1n2-c1ccc(C)cc1
→ 28% | i | i | 1.4e-08 | -0.1%
Cc1cc(C)c(C#N)c(SCC(=O)N(C)C2CCCCC2)n1
→ ? | i | i | 4.2e-08 | -2.7%
O=C(CN1CCC(n2nnc3cc(F)ccc32)CC1)NCc1ccco1
→ 0% | i | i | 1e-09 | 3.6%
CCc1c(C)nc2ncnn2c1N1CCC(C(=O)NCc2ccc3c(c2)OCO3)CC1
→ 6% | i | i | 2.6e-08 | -0.2%
COc1cc(-c2nc3oc4ccccc4c(=O)c3c(=O)n2Cc2ccco2)cc(OC)c1OC
→ -11% | i | i | 1e-09 | -0.1%
Cc1cc(OCCN2CCOCC2)nc2ccccc12
→ . | i | i | 7e-09 | .
COc1ccc(NC(=O)CSc2nnc(-c3ccccn3)n2N)cc1Cl
→ -4% | i | i | 2.5e-09 | -0.4%
c1csc(-c2nnc(-c3ccc(N4CCOCC4)cc3)o2)c1
→ 1% | i | i | 3e-08 | 1.2%
OCCN1CCOCCN(CCO)CCOCC1
→ 0% | i | i | 4.1e-09 | -1.5%
Cn1c(=O)c2c(nc(CN3CCOCC3)n2CCCO)n(C)c1=O
→ -12% | i | i | 3.2e-08 | -1.8%
Cn1c(=O)n(CC(=O)NC2CCCCC2)c(=O)c2ccccc21
→ ? | i | i | 1e-09 | -0.4%
CCCC[C@@H]1C[C@H]1C(NC(=O)c1ccco1)c1ccccc1C(F)(F)F (some centres not stated)
→ ? | . | . | . | -0.5%
Cc1ccc2c(c1)NC(=O)C(CC(=O)NCCCN1CCCCC1C)O2 (configuration not stated)
→ 2% | . | . | . | 2.7%
CCOC(=O)Nc1c(C(=O)OC)[nH]c2cc(OC)ccc12
→ -2% | i | i | 4.1e-08 | -0.6%

Not all compounds are listed; count on the stated rates, not on these rows.
